AF4-AF9 inh: blocks AF4 peptide binding to human AF9; AlphaScreen, biotin-AF4 peptide binding to FLAG-AF9; P42568; actives 0.47% (n = 350,000); AID 651704; inhibition, % at 10 µM;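 active = every replicate reaching a set inhibition limit, whatever the replicate mean, cut at about 25% in these data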;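 also: 0% = plate neutral control median and 100% = total signal loss; the record names both 10 and 1 µM as test concentration; the first replicate is given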
Target sequence (P42568 whole entry, looked up): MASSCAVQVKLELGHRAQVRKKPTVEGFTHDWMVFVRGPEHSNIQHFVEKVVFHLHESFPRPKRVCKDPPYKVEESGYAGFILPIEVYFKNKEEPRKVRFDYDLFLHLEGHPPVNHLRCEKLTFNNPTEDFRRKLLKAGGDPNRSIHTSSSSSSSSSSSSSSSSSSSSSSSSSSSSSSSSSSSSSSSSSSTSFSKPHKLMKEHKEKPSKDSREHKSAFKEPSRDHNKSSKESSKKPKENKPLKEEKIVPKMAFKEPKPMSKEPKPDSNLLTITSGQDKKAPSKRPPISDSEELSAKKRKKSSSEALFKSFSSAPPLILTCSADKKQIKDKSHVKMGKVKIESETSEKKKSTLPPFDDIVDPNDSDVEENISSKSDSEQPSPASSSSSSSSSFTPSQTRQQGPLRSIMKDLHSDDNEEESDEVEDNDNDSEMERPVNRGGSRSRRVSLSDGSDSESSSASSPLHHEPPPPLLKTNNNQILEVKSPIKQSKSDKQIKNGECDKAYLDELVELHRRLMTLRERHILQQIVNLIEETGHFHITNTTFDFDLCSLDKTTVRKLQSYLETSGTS
* = called active by the depositor. This is a subset, so the mix of outcomes need not match the whole.

#	Compound	AF4-AF9 inh
1	O=C(O)C[C@H]1C[C@@H]2c3cc(NC(=O)c4ccc5c(c4)OCO5)ccc3O[C@@H]2[C@H](CO)O1	-1.7
2	O=C(Nc1cc(F)ccc1F)N[C@H]1C=C[C@H](CC(=O)N2CCc3ccccc3C2)O[C@H]1CO	-0.1
3	C[C@H](CO)N1C[C@H](C)[C@@H](CN(C)C)OCCCC[C@H](C)Oc2ccc(NS(=O)(=O)c3cccs3)cc2C1=O	-1.6
4	CCOC(=O)[C@]12CCC=C1N(Cc1ccc(Cl)cc1Cl)C(=O)[C@H](CC(=O)NCc1cccc3ccccc13)C2	-3.4
5	O=C1NC[C@@H](CCCCN2C[C@H](Cc3ccccc3)N(CC3CCCCC3)C(=O)C2=O)N(CC2CCCCC2)C1=O	-2.7
6	O=C(CN1CCOCC1)NCC[C@@H]1CC[C@@H](NS(=O)(=O)c2ccc(Cl)cc2)[C@@H](CO)O1	-1.1
7	O=C(NCC[C@H]1CC[C@@H](NC(=O)c2ccccc2F)[C@@H](CO)O1)c1cnccn1	-0.3
8	Cc1cccc(CN(C)C[C@@H]2OCc3cnnn3CCCC(=O)N([C@H](C)CO)C[C@@H]2C)c1	0.1
9	COC(=O)C[C@H]1CC[C@@H]2[C@@H](COc3ccc(NC(=O)Nc4cccc(F)c4)cc3C(=O)N2C)O1	2.8
10	CNc1cncc(-c2ccc(OCCCN(C)C)nc2)n1	0.4
11	CCCNC(=O)Nc1ccc2c(c1)OC[C@H](C)N(CCC(F)(F)F)C[C@H](C)[C@@H](OC)CN(C)C2=O	-0.2
12	CO[C@@H]1CN(C)C(=O)c2cc(C#N)ccc2OCC[C@H]2CC[C@@H](OC)[C@@H](CN(C)C(=O)[C@H]1C)O2	3.1
13	CC=Cc1ccc2n(c1=O)C[C@H]1[C@H](CO)[C@@H](C(=O)N[C@@H](C)c3ccccc3)[C@@H]2N1Cc1cncnc1 (mixture of isomers)	1.4
14	O=C1CN(S(=O)(=O)Cc2ccccc2)C[C@@H]2[C@@H](c3ccc(C#Cc4ccc(F)cc4)cc3)[C@@H](CO)N12	1.3
15	COc1ccc(S(=O)(=O)N(C)C[C@@H]2Oc3ccc(NC(=O)CCCN(C)C)cc3CC(=O)N([C@H](C)CO)C[C@@H]2C)cc1	-1.7
16	C[C@@H]1CCCCO[C@H](CN(C)S(=O)(=O)c2cccs2)[C@H](C)CN([C@H](C)CO)C(=O)c2cc(N(C)C)ccc2O1	5.2
17	CCNC(=O)Nc1ccc2c(c1)C(=O)N(C)[C@@H]1CC[C@H](CC(=O)NCC3CCCCC3)O[C@H]1CO2	1.1
18	CCC(=O)NC[C@@H]1[C@@H](c2ccc(C3=CCCC3)cc2)[C@@H](CO)N1C(=O)CC	-1.9
19	COc1ccc(CNC(=O)C[C@H]2C[C@H]3c4cc(NS(C)(=O)=O)ccc4O[C@H]3[C@@H](CO)O2)cc1	-1.4
20	CO[C@H]1CN(C)C(=O)c2cc(NC(=O)c3ccc(F)cc3)ccc2OC[C@H](C)N(C)C[C@H]1C	-0.5

Other results:
#	Compound	AF4-AF9 inh
21	CC(C)NC(=O)C1(C)CN(S(C)(=O)=O)CC(=O)N1CC(F)(F)F (stereo not given)	-1.1
22	CC1(C)OC(=O)C2=C(C[C@@H](C3CCCCC3)O[C@@H]2c2ccc(F)cc2)O1	-0.7
23	COc1ccc(CNC(=O)c2sc(=O)n(Cc3ccc(-c4ccccc4)cc3)c2C)cc1OC	0.2
24	C[C@H](CO)N1C[C@H](C)[C@H](CN(C)Cc2ccc(C(=O)O)cc2)Oc2ccc(NC(=O)Nc3ccccc3)cc2C1=O	-3.4
25	O=C(NCC[C@@H]1CC[C@@H](NS(=O)(=O)c2ccccc2)[C@H](CO)O1)c1cc(Cl)cc(Cl)c1	-0.3
26	CC(C)NC(=O)Nc1ccc2c(c1)C(=O)N([C@H](C)CO)C[C@H](C)[C@@H](CN(C)C(=O)C1CCCCC1)OCCCC[C@H](C)O2	-1.8
27	COCC(=O)N1[C@H](CO)[C@@H]2c3ccccc3N(C(=O)Nc3ccccc3F)C[C@@H]21	-2.3
28	CCS(=O)(=O)NCC[C@H]1CC[C@@H](NC(=O)C2CCC2)[C@H](CO)O1	-1.8
29	Cn1cnc(S(=O)(=O)N[C@H]2C=C[C@@H](CC(=O)N3CCN(c4ccccc4)CC3)O[C@H]2CO)c1	0.2
30	CCC(=O)Nc1ccc2c(c1)C(=O)N(C)[C@H]1CC[C@@H](CC(=O)Nc3cccc(OC)c3)O[C@H]1CO2	-1.9
31	C[C@@H]1CN([C@@H](C)CO)C(=O)c2cc(N(C)C)ccc2O[C@H]1CN(C)C(=O)Nc1ccccc1	0.1
32	CO[C@H]1CN(C)C(=O)c2cc(NC(=O)NC(C)C)ccc2OC[C@@H](C)N(CC2CC2)C[C@H]1C	-1.3
33	CN1CCN(C(=O)C[C@@H]2C[C@H]3c4cc(NC(=O)Nc5ccc(C(F)(F)F)cc5)ccc4O[C@H]3[C@@H](CO)O2)CC1	9.1
34	CCC(=O)N1[C@H](CO)[C@@H](c2ccc(-c3cccnc3)cc2)[C@@H]1CN(CC)C(C)=O	-2.2
35	CC(C)C#Cc1ccc([C@@H]2[C@@H](CO)N3C(=O)CN(C(=O)c4ccc5c(c4)OCO5)C[C@H]23)cc1	3.4
36	O=C(O)C[C@H]1C[C@@H]2c3cc(NC(=O)C4CCC4)ccc3O[C@@H]2[C@@H](CO)O1	-2.1
37	C[C@H](NC(=O)C[C@@H]1C=C[C@H](NC(=O)Cc2ccccn2)[C@@H](CO)O1)c1ccccc1	-1.3
38	C[C@@H]1CN([C@H](C)CO)C(=O)c2cc(C#Cc3cccnc3)cnc2O[C@H]1CN(C)Cc1cccnc1	-2.4
39	C[C@H](CO)N1C[C@H](C)[C@H](CN(C)S(=O)(=O)c2ccc(Cl)cc2)Oc2c(NC(=O)c3ccncc3)cccc2C1=O	-0.1
40	Cc1noc(C)c1NC(=O)N(C)C[C@@H]1Oc2ccc(NC(=O)CCC(F)(F)F)cc2C(=O)N([C@@H](C)CO)C[C@@H]1C	-2.0

Next section
#	Compound	AF4-AF9 inh
41	CCCNC(=O)N1C[C@@H](O)COC[C@@H]2O[C@@H](CC(=O)NCc3ccncn3)CC[C@H]21	-4.4
42	O=C(Nc1cc(F)ccc1F)N1CCCCN2[C@@H](CO)[C@H](c3ccc(-c4ccccc4)cc3)[C@@H]2C1	3.5
43	C[C@H]1CCCCO[C@@H](CN(C)C(=O)Nc2ccc(C(F)(F)F)cc2)[C@@H](C)CN([C@@H](C)CO)C(=O)c2cc(NC(=O)c3ccncc3)ccc2O1	-3.1
44	Cc1ccc(S(=O)(=O)N[C@H]2CC[C@H](CCNC(=O)Nc3ccc(Cl)cc3)O[C@H]2CO)cc1	7.7
45	COc1ccc(NC(=O)N2CC(=O)N3[C@@H](CO)[C@H](c4ccc(-c5ccccc5)cc4)[C@@H]3C2)cc1	2.8
46	CCNC(=O)C[C@H]1CC[C@H]2[C@@H](COc3ccc(NC(=O)Cc4cccs4)cc3C(=O)N2C)O1	0.2
47	Cc1ccc(S(=O)(=O)N[C@@H]2CC[C@@H](CCn3cc(C4CCCC4)nn3)O[C@H]2CO)cc1	1.8
48	C[C@H]1CN([C@@H](C)CO)C(=O)c2cc(NC(=O)Cc3cn(C)c4ccccc34)ccc2O[C@@H]1CN(C)Cc1ccc(-c2ccccc2)cc1	0.7
49	C[C@H](CO)N1C[C@H](C)[C@H](CN(C)Cc2ccc(C(F)(F)F)cc2)Oc2ccc(NC(=O)CCCCCC(=O)Nc3ccccc3N)cc2C1=O	-0.2
50	CNC[C@@H]1OCCCC[C@@H](C)Oc2ccc(NS(=O)(=O)c3ccccc3)cc2C(=O)N([C@@H](C)CO)C[C@H]1C	-7.9
51	CCC(=O)N[C@@H]1CC[C@@H](CCNC(=O)Nc2ccc(C(F)(F)F)cc2)O[C@H]1CO	5.0
52	COC(=O)c1ccc(CN2CC(=O)N3[C@@H](CO)[C@@H](c4ccc(Br)cc4)[C@@H]3C2)cc1	3.4
53	C[C@@H]1CN([C@@H](C)CO)S(=O)(=O)c2ccc(-c3cncnc3)cc2O[C@@H]1CN(C)C(=O)NC1CCCC1	0.8
54	CC(=O)N(C)C[C@@H]1Oc2cc(-c3ccccc3F)ccc2S(=O)(=O)N([C@H](C)CO)C[C@H]1C	-3.9
55	CS(=O)(=O)N1CC2(C1)[C@@H](c1ccccc1)[C@@H](CO)N2Cc1ccccn1	-0.7
56	CCCN(C)C[C@@H]1OCCCC[C@H](C)Oc2ccc(NC(=O)C3CCCCC3)cc2C(=O)N([C@@H](C)CO)C[C@@H]1C	4.3
57	C[C@@H]1CN([C@@H](C)CO)C(=O)c2ccccc2-c2ccccc2CO[C@H]1CN(C)C(=O)C1CC1	-3.4
58	CCC(=O)N[C@@H]1CC[C@H](CC(=O)NCc2ccc(OC)cc2)O[C@H]1CO	-0.5
59	COc1ccccc1CN1[C@H](CO)[C@H]2c3ccccc3N(C(=O)c3ccc(F)cc3)C[C@H]21	2.6
60	CCCNC(=O)[C@@H]1[C@@H](CO)[C@@H]2Cn3c(ccc(C4=CCCC4)c3=O)[C@H]1N2C(=O)CC	0.8

Single entries from the list:
cpd 55 @ AF4-AF9 inh: -0.7
cpd 57 @ AF4-AF9 inh: -3.4
cpd 58 @ AF4-AF9 inh: -0.5
cpd 51 @ AF4-AF9 inh: 5.0
cpd 53 @ AF4-AF9 inh: 0.8

Among those listed so far, these have a COOH group.
#	Compound	AF4-AF9 inh
1	O=C(O)C[C@H]1C[C@@H]2c3cc(NC(=O)c4ccc5c(c4)OCO5)ccc3O[C@@H]2[C@H](CO)O1	-1.7
24	C[C@H](CO)N1C[C@H](C)[C@H](CN(C)Cc2ccc(C(=O)O)cc2)Oc2ccc(NC(=O)Nc3ccccc3)cc2C1=O	-3.4
36	O=C(O)C[C@H]1C[C@@H]2c3cc(NC(=O)C4CCC4)ccc3O[C@@H]2[C@@H](CO)O1	-2.1

More records:
#	Compound	AF4-AF9 inh
61	C[C@H](O)C#Cc1ccc([C@H]2[C@@H](CO)N3CCCCN(S(=O)(=O)c4ccccc4)C[C@H]23)cc1	0.0
62	C[C@H]1CCCCO[C@H](CN(C)S(=O)(=O)c2ccc(Cl)cc2)[C@@H](C)CN([C@@H](C)CO)C(=O)c2cc(NC(=O)Nc3ccc(F)cc3)ccc2O1	-0.5
63	CNC(=O)C1=C[C@@H](c2ccc(OC)cc2)C[C@@H](OCCCCO)O1	-2.2
64	CC(C)NC(=O)Nc1ccc2c(c1)C(=O)N([C@H](C)CO)C[C@@H](C)[C@H](CN(C)Cc1ccncc1)O2	-2.3
65	CC=Cc1ccc2n(c1=O)C[C@@H]1[C@@H](CO)[C@H](C(=O)NC3CCCC3)N(CCC)[C@H]21 (mixture of isomers)	-4.6
66	COc1ccc(C(=O)Nc2ccc3c(c2)C(=O)N(C)C[C@H](OC)[C@H](C)CN(C(C)=O)[C@@H](C)CO3)cc1	2.3
67	O=c1n(Cc2ccccc2)c(O)c2n1Cc1ccccc1N=C2c1ccc(C(F)(F)F)cc1	0.6
68	C/C=C1\NC(=O)[C@H](C)NC(=O)[C@@H](NC(=O)[C@H](Cc2ccc(O)cc2)NC(=O)[C@@H](NC(=O)/C(C)=C/C)C(C)C)[C@@H](C)OC(=O)[C@H](CC(C)C)NC(=O)[C@@H](CCC(=O)O)NC1=O	-0.1
69	C[C@H]1CN([C@@H](C)CO)C(=O)c2cccc(NC(=O)NC3CCCCC3)c2O[C@H]1CN(C)Cc1ccc(Oc2ccccc2)cc1	2.8
70	C[C@H](CO)N1C[C@H](C)[C@@H](CN(C)C)OCCCC[C@H](C)Oc2ccc(NC(=O)c3ccccc3)cc2C1=O	-5.8
71	C[C@@H]1CCCCO[C@H](CN(C)S(=O)(=O)c2ccc(F)cc2)[C@@H](C)CN([C@@H](C)CO)C(=O)c2cc(NC(=O)Nc3ccc4c(c3)OCO4)ccc2O1	0.8
72	CCO[C@@H]1OC(C(=O)N2CCN(Cc3ccccc3)CC2)=C[C@H](C2CCCCC2)[C@H]1CCCO	2.2
73	C[C@@H]1CN([C@H](C)CO)C(=O)Cc2cc(N(C)C)ccc2O[C@H]1CN(C)Cc1ccc(Oc2ccccc2)cc1	43*
74	CO[C@H]1CN(C)C(=O)c2cc(NC(=O)c3ccc(F)cc3)ccc2OC[C@H](C)N(C(C)=O)C[C@H]1C	1.2
75	CCOC(=O)C1CSCCS(=O)(=O)N1Cc1ccc(C)cc1 (stereo not given)	-2.7
76	COc1ccc(CN(C)C[C@H]2OCCCC[C@@H](C)Oc3ccc(N(C)C)cc3C(=O)N([C@@H](C)CO)C[C@H]2C)cc1	8.7
77	COc1cc(OC)cc(C(=O)NCC2CCN(C(=O)C(=O)c3cccs3)CC2)c1	3.0
78	CCS(=O)(=O)N[C@H]1C=C[C@@H](CC(=O)NCc2ccc(F)cc2)O[C@H]1CO	-0.8
79	CC(C)N(C)c1ncnc2c1ncn2[C@H]1CN(CCN2CCOCC2)C[C@@H](CO)O1	-0.9
80	O=C(Nc1ccc2c(c1)OCCO2)C(c1ccccc1F)n1c(=O)c(-c2cc3ccccc3[nH]2)nc2ccccc21 (stereo not given)	-7.8
81	Cc1noc(C)c1NC(=O)N[C@H]1C=C[C@H](CC(=O)N2CCN(C)CC2)O[C@@H]1CO	-0.8
82	C[C@H](CO)N1C[C@H](C)[C@H](CN(C)S(=O)(=O)c2ccc(Cl)cc2)OCc2ccccc2-c2ccccc2C1=O	4.4
83	COC(=O)[C@@]12C[C@@H](CC(=O)NCCC(C)C)C(=O)N(Cc3cccc4ccccc34)C1=CCC(C)(C)C2	4.1

Ordered by the number under AF4-AF9 inh (ascending): four from the list above
#	Compound	AF4-AF9 inh
80	O=C(Nc1ccc2c(c1)OCCO2)C(c1ccccc1F)n1c(=O)c(-c2cc3ccccc3[nH]2)nc2ccccc21 (stereo not given)	-7.8
70	C[C@H](CO)N1C[C@H](C)[C@@H](CN(C)C)OCCCC[C@H](C)Oc2ccc(NC(=O)c3ccccc3)cc2C1=O	-5.8
61	C[C@H](O)C#Cc1ccc([C@H]2[C@@H](CO)N3CCCCN(S(=O)(=O)c4ccccc4)C[C@H]23)cc1	0.0
67	O=c1n(Cc2ccccc2)c(O)c2n1Cc1ccccc1N=C2c1ccc(C(F)(F)F)cc1	0.6

Compound activity as filed in PubChem BioAssay.
